Sa helicase inh = S. aureus DNA helicase inhibition; purified S. aureus helicase, fluorescence unwinding assay; about half of the hits fall short of the stated cut; inhibition, %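 (tested at about 80 µM)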; 0.05% of 120,000 active;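 active = both duplicates at 50% or more, or one of them with a favoured structure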;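 note: 0% = mean of negative control wells and 100% = mean of positive control wells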
MgrA-DNA mod = alters Staphylococcus aureus MgrA binding to DNA; fluorescence polarization; inhibition, %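 (about 10 µg/mL by stock and volumes)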; 0.13% of 84,000 active;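 active = above 50% in either of two replicates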;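 note: 0% = protein plus DNA without compound and 100% = DNA alone without protein; higher means less MgrA bound to DNA so lower polarization; one replicate is shown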
Starred values were filed as active, the others as inactive; . = not tested or not shown.

SMILES | Sa helicase inh | MgrA-DNA mod
COc1ccc2c(c1)C(=O)N(c1ccccc1)C(=O)C2 | -49.0 | .
O=C(c1ccc2c(c1)CCN2S(=O)(=O)c1ccccc1)N1CCN(c2ccccc2)CC1 | 8.0 | .
N#Cc1ccc(-c2cccc(Cl)c2Cl)o1 | 8.0 | 1.3
O=C(C1CCCO1)N1CCN(c2ccc(Cl)c(Cl)c2)CC1 (configuration not stated) | 4.0 | 0.4
O=C(Cc1ccc(Cl)cc1)NCC1COC2(CCCC2)O1 (configuration not stated) | 10.0 | .
CC(C)OC(=O)c1cc2nc(-c3ccccc3)cc(C(F)(F)F)n2n1 | 3.0 | -0.3
CC(=O)N1CCN(C(=O)c2cc(-c3ccc(C)cc3)nc3ccccc23)CC1 | 7.0 | 1.3
CCOc1cccc2cc(-c3nc4ccccc4[nH]3)c(=O)oc12 | 4.0 | .
CCc1nnc(NC(=O)C2Cc3ccccc3C(=O)O2)s1 (configuration not stated) | 10.0 | .
Cc1ccc(-c2nc(C#N)c(NCc3ccc4c(c3)OCO4)o2)cc1 | 5.0 | -8.0

Retrieved by compound from above (seven):
SMILES | Sa helicase inh | MgrA-DNA mod
O=C(C1CCCO1)N1CCN(c2ccc(Cl)c(Cl)c2)CC1 (configuration not stated) | 4.0 | 0.4
CCOc1cccc2cc(-c3nc4ccccc4[nH]3)c(=O)oc12 | 4.0 | .
CCc1nnc(NC(=O)C2Cc3ccccc3C(=O)O2)s1 (configuration not stated) | 10.0 | .
CC(C)OC(=O)c1cc2nc(-c3ccccc3)cc(C(F)(F)F)n2n1 | 3.0 | -0.3
CC(=O)N1CCN(C(=O)c2cc(-c3ccc(C)cc3)nc3ccccc23)CC1 | 7.0 | 1.3
COc1ccc2c(c1)C(=O)N(c1ccccc1)C(=O)C2 | -49.0 | .
Cc1ccc(-c2nc(C#N)c(NCc3ccc4c(c3)OCO4)o2)cc1 | 5.0 | -8.0

Remaining list, next part
SMILES | Sa helicase inh | MgrA-DNA mod
CCCCN(Cc1ccccc1)S(=O)(=O)c1cccc2nsnc12 | 11.0 | 0.3
COc1cc(/C=N/n2nnnc2N)ccc1OCc1ccc(Cl)cc1Cl | 8.0 | .
Cc1cc(Cl)nc(C(C)C)n1 | -3.0 | .
CCc1cc2c(N3CCN(c4nc(C)cc(C)n4)CC3)ncnc2s1 | -16.0 | 2.0
C=C(C)CSc1nc2ccccc2s1 | 3.0 | .
CCSc1nccc(C(F)(F)F)c1C(=O)Nc1c(C)cccc1C | . | -3.0
CCn1nnc2c(NC3CCCCC3)ncnc21 | -12.0 | .
CC(C)N(Cn1nc(-c2ccccc2)n(-c2ccccc2)c1=S)C(C)C | -10.0 | .
CN(C)S(=O)(=O)CC12CCC(CC1=O)C2(C)C (configuration not stated) | 4.0 | 0.1
CCc1ccc(NC(=O)c2[nH]nc3c2CSc2ccccc2-3)cc1 | 9.0 | 4.6
CCn1c(CSc2nc3ccccc3s2)nnc1SCc1ccc(C(=O)OC)o1 | 12.0 | .
C/C(=N/O)c1cc(C(C)(C)C)c(O)c(C(C)(C)C)c1 | 23.0 | .
CCOc1ccc(C(=O)OC2CCCN(C)C2)cc1 (configuration not stated) | 11.0 | .
COc1ccc(C(=O)c2sc3nc(-c4ccco4)cc(C(F)(F)F)c3c2N)cc1OC | -118.0 | .
CCC1CCc2c(sc3ncnc(N4CCOCC4)c23)C1 (configuration not stated) | 5.0 | 2.4
Cn1c(SCc2ccc(Br)cc2F)nnc1C(F)(F)F | . | -0.2
N#CCSc1ccc(-c2ccco2)nn1 | 6.0 | .
Cc1cc(=O)n(CC(C)C)c(O)c1C#N | 5.0 | -1.2
CC(Oc1ccccc1)c1nc2ccccc2[nH]1 (configuration not stated) | -4.0 | -0.8
COC(=O)c1ccccc1NC(=O)CN1CCC(C)CC1 | 15.0 | -0.5
O=C(Oc1ccc(OC(=O)N2CCOCC2)cc1)N1CCOCC1 | -3.0 | -2.5
Cc1nc2sccn2c1C(=O)C(F)(F)F | -10.0 | .
COc1cccc(NC(=O)CCC(=O)O)c1 | . | -0.9
Cc1ccc(S(=O)(=O)N2CCCC(NC(=O)N3CCN(c4ccccc4)CC3)C2)cc1 (configuration not stated) | 12.0 | -2.8
Nc1cc(=O)[nH]c(=O)n1-c1ccccc1 | 9.0 | .
O=C(Nc1cccc(-c2nnc3n2CCCCC3)c1)C1=CN2CCS(=O)(=O)N=C2C=C1 | -5.0 | .
COc1ccc(CCN2C(=O)CC(C(=O)Nc3ccccc3OC)SC2=Nc2ccccc2)cc1 (configuration not stated) | . | -0.5
COc1ccc(OS(=O)(=O)c2ccc(C)cc2)c(Br)c1 | . | 0.5
COc1ccccc1C(=O)OCC(=O)NCc1ccccc1 | -24.0 | 4.0
O=C(NCc1ccc(Cl)cc1)c1cc2sccc2n1Cc1ccc(F)cc1 | 9.0 | -0.5
CC(C)c1ccc(NC(=O)C2CC(=O)N=C(N)S2)cc1 (configuration not stated) | -6.0 | -1.1
CC(=O)Nc1c(F)cccc1F | . | 2.0
S=c1nc[nH]c2c1cnn2-c1ccccc1 | 1.0 | 0.8
O=C1OC(N2CCc3ccccc3C2)c2ccccc21 (configuration not stated) | 3.0 | -2.1
CN(C)c1ccc(/C=C2\SC(=S)NC2=O)cc1 | -421.0 | -13.0
C1CCC2(C1)OCC1(CO2)COC2(CCCC2)OC1 | 5.0 | -1.2
CN(C)/C=N/S(=O)(=O)c1cc(Cl)sc1Cl | 21.0 | .
OCCn1c(CCCCc2nc3ccccc3n2CCO)nc2ccccc21 | -3.0 | .
Cc1csc(/C(=N\O)c2csc(C)n2)n1 | -1.0 | .
CCCN1CCC(NN2CCOCC2)CC1 | 21.0 | -3.2
CCC(c1nnnn1C1CCCC1)N1CCN(Cc2ccccc2)CC1 (configuration not stated) | 6.0 | 0.9
O=C(NCC1COc2ccccc2O1)c1cc2c(s1)-c1ccccc1OC2 (configuration not stated) | -4.0 | -0.3
Cc1c(C(=O)NC2CCCC2)oc2ccc3c(c12)C=CC1(CCCC1)O3 | 4.0 | 3.4
CCc1ccc(NC(=O)CSc2n[nH]c(=O)n2C2CC2)cc1 | 14.0 | .
Cc1cccc(NC(=O)CC2C(=O)NCCN2C(=S)Nc2ccccc2)c1 (configuration not stated) | 1.0 | 1.5
Cc1ccc(NS(C)(=O)=O)cc1N=Cc1cccs1 | . | 0.2
O=C(O)CNC(=O)/C=C/c1ccccc1F | 4.0 | -7.2
CC1CCCC(NC(=O)CN2C(=O)/C(=C\c3ccccc3Cl)Oc3ccccc32)C1C (configuration not stated) | 13.0 | 3.6
Cc1cc(C(F)(F)F)nc2snc(Br)c12 | 12.0 | -0.4
O=C(/C=C/c1ccccc1)Nc1ccc2c(c1)OCCO2 | 11.0 | 0.0
Remaining list, next part.
SMILES | Sa helicase inh | MgrA-DNA mod
CC(C)(C)c1ccc(-n2nnnc2-c2ccccc2)cc1 | . | -0.9
CN(C(=O)Cn1cccc1C1=NC(c2ccccc2)CO1)c1ccccc1 (configuration not stated) | -1.0 | .
Brc1ccc(/C=C2\CCC(C3=CCCC3)=C2N2CCOCC2)cc1 | -15.0 | .
NC(=S)N/N=C/c1ccccc1OCC(=O)O | 7.0 | -0.1
Nc1nc(SCC(=O)NCCc2ccccc2)n[nH]1 | -2.0 | .
CCC(C)(C)NC(=O)CCn1ccc(C)n1 | -16.0 | .
CC(=O)NC(C(=O)N1CCN(S(=O)(=O)c2cccs2)CC1)C(C)C (configuration not stated) | -4.0 | .
O=C(Sc1ccc(Cl)cc1)c1cnn(-c2ccccc2)c1C(F)(F)F | . | 0.5
Cc1cc(N2CCN(S(=O)(=O)c3ccc(Cl)cc3)CC2)c2ccccc2n1 | . | -0.7
CCc1nc(SCC(=O)NCc2ccccc2)c2c(=O)n(C)c(=O)n(C)c2n1 | 2.0 | .
N#CCCN(Cc1ccco1)S(=O)(=O)c1ccccc1 | 10.0 | 0.3
NC(=O)N1C(=O)C=CC1=O | 2.0 | .
NC(=O)c1ncn([C@@H]2O[C@H](CO)[C@H](O)C2O)n1 (some centres not stated) | . | -1.2
Clc1nc(-c2ccccc2)nc2ccsc12 | . | -1.8
O=C(O)CCCC(=O)N1CCc2c([nH]c3ccccc23)C1C(F)(F)F (configuration not stated) | . | 0.1
CN1C(=O)/C(=C\c2ccc(O)cc2)SC1=S | -90.0 | .
CCCNC(=O)c1cc2sc(Cl)cc2n1CC | 5.0 | 1.2
Oc1ccccc1N=Cc1ccncc1 | -8.0 | -1.9
Cc1noc(C)c1CN(C(=S)Nc1cccc(Cl)c1)c1ccccc1 | -6.0 | .
COc1cccc(NC(=O)CCSc2nnc3scc(-c4ccccc4)n23)c1 | 12.0 | .
O=C(CSc1nc2ccccc2o1)NN=C1CCCC1 | 19.0 | 2.0
Nc1cc(=O)[nH]c(SCc2c(Cl)cccc2Cl)n1 | . | 1.0
CC(N=C1SCCN1C(=O)c1ccc(NC(N)=O)cc1)c1ccccc1 (configuration not stated) | 7.0 | .
CCCCNc1nc(=S)nc(N(C)C)[nH]1 | -2.0 | 3.2
CCCc1ccc(-c2cc(N)n(-c3ccccc3)n2)cc1 | -13.0 | 1.0
O=C(Nc1ccc2c(c1)OCO2)Oc1ccccc1 | . | 0.1
N#CC(C#N)=c1ccc(=C(C#N)c2ccc(N3CCCC3)cc2)cc1 | -16.0 | 4.7
CC(=O)Nc1ccc(S(=O)(=O)NCc2nc(-c3ccccc3)no2)cc1 | 6.0 | .
C/C=C/C=N/N=C/C1=C(N2CCOCC2)C(=C\c2ccccc2)/CC1 | 4.0 | .
COC(=O)c1sccc1NC(=O)c1cc(S(=O)(=O)N(C)C)oc1C | . | -3.0
N#Cc1c(N)n(Cc2ccccc2)c2nc3ccccc3nc12 | -3.0 | 1.9
Cc1nc2ccc(NC(=O)C3=NN(C)C(=O)CC3)cc2s1 | 2.0 | .
CC(=O)N1C/C(=N/NC(N)=S)c2cc(Br)ccc21 | -9.0 | .
CCOCCOC(=O)C1=C(C)NC2=C(C(=O)CC(c3ccc(Cl)cc3)C2)C1c1cccc(OC)c1 (configuration not stated) | . | -1.0
N=C1S/C(=C/c2ccccc2)C(=O)N1c1nonc1N | 12.0 | 0.1
CC1CC(C)(C)OC(C[N+]2(C)CCCCC2)O1 (configuration not stated) | -9.0 | 1.8
COC(=O)Nc1sc(-c2ccc(Cl)cc2)nc1-c1cccs1 | -3.0 | .
COc1ccc(C2CC(=O)C3=C(C2)Nc2ccccc2N(C(C)=O)C3c2ccco2)cc1OC (configuration not stated) | 1.0 | .
CC1(Cc2nc3ccccc3[nH]2)OCCO1 | -15.0 | -2.9
O=C(CCn1cnc2onc(-c3ccc(F)cc3)c2c1=O)Nc1cccc(Cl)c1 | 22.0 | .
O=C(C1c2ccccc2Oc2ccccc21)N1CCCc2ccccc21 | 9.0 | -0.9
CCC(=O)N(Cc1cc2ccccc2[nH]c1=O)C(C)C | 10.0 | -1.9
Cc1cccc(N(C)C(=O)c2cc3c(=O)oc4ccccc4c3s2)c1 | 9.0 | 0.3
O=C(Nc1cc2cc(Br)ccc2oc1=O)C1CCCCC1 | -16.0 | -1.3
CC(C)[C@H](NC(=O)Cc1ccccc1)C(=O)OCn1nnc2ccccc2c1=O | -7.0 | .
Cn1c(=O)[nH]c(=O)c2c1nc1n2CCCC1c1ccccc1 (configuration not stated) | 2.0 | -1.3
C=CCNCc1cc2cc(C)cc(C)c2[nH]c1=O | 6.0 | -0.2
COc1cccc(NC(=O)CN(C)C(=O)Cc2ccccc2F)c1 | -7.0 | .
COC(=O)c1ccsc1NC(=O)C1=COCCO1 | 4.0 | .
Cc1nn(CCC#N)c(NC(=O)c2ccc(Cl)cc2)c1P(=O)(Nc1ccc(F)cc1)N1CCOCC1 (configuration not stated) | 1.0 | .
The results go on:
SMILES | Sa helicase inh | MgrA-DNA mod
COc1cc2c(cc1OC)CN(CC1=CCC3CC1C3(C)C)CC2 (configuration not stated) | 5.0 | -0.4
CCOC(=O)c1cnc(Sc2ccccc2N)nc1C(F)(F)F | . | 1.6
CCc1n[nH]c(=O)n1Cn1c(CC)n[nH]c1=O | 25.0 | .
Nc1cccc2c1C(=O)N(C(=O)c1ccc(S(=O)(=O)N3CCCCCC3)cc1)C2=O | -1.0 | .
O=C(NCc1ccco1)c1ccccc1NCCOc1ccc(Cl)cc1 | 6.0 | .
O=C(NCCN1CCOCC1)c1ccc(-n2ccc3ccccc32)s1 | -2.0 | .
Cc1nn(Cc2ccccc2)c(Cl)c1/C=N/n1c(C)nc2ccccc2c1=O | 14.0 | .
CC(=O)NC1C(=O)N(Cc2ccccc2)c2ccccc21 (configuration not stated) | 10.0 | 4.0
Cc1ccc(S(=O)(=O)NC(=O)Nc2[nH]n(-c3ccccc3)c(=O)c2C2=NCCCCC2)cc1 | -9.0 | .
O=C(O)C(O)Cc1c[nH]c2ccccc12 (configuration not stated) | 1.0 | -8.5
COC(=O)c1ccc(CC(C#N)(c2ccccc2)c2ccccc2)o1 | -4.0 | .
Cc1cc(CN2CCN(Cc3ccccc3)CC2)cs1 | 7.0 | -0.6
CC1(C)CC(NC(=O)/C=C/C(=O)NC2CC(C)(C)NC(C)(C)C2)CC(C)(C)N1 | 6.0 | 1.3
CCOc1nc(NCCc2ccc(OC)c(OC)c2)nc(N2CCN(c3ccc(OC)cc3)CC2)n1 | 9.0 | 0.6
COC(=O)c1sc(Br)c(Br)c1OC | . | 0.6
C=C(C)Cc1c(C)nc(SC)[nH]c1=O | . | 0.1
COc1ccc(-c2cc(C(=O)NCCc3ccccc3)nc3n[nH]c(-c4ccccc4)c23)cc1OC | 1.0 | 1.5
C=CCNC(=O)c1cc(-c2ccccc2O)on1 | 2.0 | 0.8
Cc1cccc(N(CC(N)=O)S(C)(=O)=O)c1C | 8.0 | 0.5
c1cc(CNc2ccc3c(c2)OCCO3)ccn1 | 0.0 | -2.3

Some values from the list.
In Sa helicase inh, CCOc1nc(NCCc2ccc(OC)c(OC)c2)nc(N2CCN(c3ccc(OC)cc3)CC2)n1 has 9.0
In MgrA-DNA mod, C=C(C)Cc1c(C)nc(SC)[nH]c1=O has 0.1

Screens deposited in PubChem BioAssay by ICCB-Longwood Screening Facility, Harvard Medical School.

A portion of the library (hit frequency here may not be typical).
